VCAM-1 rise: boosters of cytokine-driven VCAM-1 levels – cell-based, plate reader, pooled HUVEC, TNFa stimulus (AID 455) | HUVEC TNFa-induced VCAM-1 immunofluorescence, plate reader; numbers were filed only for top-ranked candidate wells | augmentation, % at 5 µM | 10,000 compounds, 0.2% hits;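 active = a compound raising TNF-alpha-driven VCAM-1 surface staining, with its hit status upheld on visual or statistical review; inactive = the rest, including hits rejected on review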;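 note: 0% = TNFa with vehicle and 100% = strongest image-checked hit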
Proteasome disasm: blocks ATP-dependent breakdown of the yeast 26S proteasome. anti-FLAG beads, GFP-proteasome disassembly, flow cytometry. inhibition of disassembly, % (test concentration not listed). 24,000 compounds, 0.2% hits. AID 751;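 active = above 40%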;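 note: plate controls were ATP control with full disassembly for no effect and ATP-gamma-S intact proteasomes for full effect; higher percent means more bead fluorescence retained so stronger block of disassembly; stock transfer was 100 nL into about 10 µL; wells with too few beads may also be inconclusive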
* marks the source's active call; other numbers are inactive results; i = inactive; nt = no result given. Only part of the results is shown; count on the stated rates, not on these rows.

SMILES	VCAM-1 rise	Proteasome disasm
Cn1nc(-c2ccc(Cl)cc2)c2cc(C(=O)NCCCN3CCCC3)sc21	nt	1.8
Cc1ccc(C)c(C(=O)CC2(O)C(=O)Nc3ccccc32)c1 (stereo not given)	i	0.8
Cc1ccc2c(c1)NC(=O)C(CC(=O)NCCCN1CCc3ccccc3C1)O2 (stereo not given)	nt	1.4
COc1ccc(-c2nc3c(c(SCC(=O)N4CCOCC4)n2)COC(C)(C)C3)cc1	i	2.0
CCOC(=O)N1CCC(NC(=O)CNS(=O)(=O)c2ccc(Br)s2)CC1	nt	0.1
CCOc1ccc(NC(=O)C2CCCN(S(=O)(=O)c3c(C)n[nH]c3C)C2)cc1 (stereo not given)	nt	-1.3
COc1ccc(S(=O)(=O)N2CCCN(CC(=O)Nc3ccc4c(c3)OCO4)CC2)cc1	nt	-0.9
Cc1ccc(-c2ccc(=O)n(CCC(=O)NCCN3CCCCC3C)n2)cc1 (stereo not given)	i	-1.2
CC(=O)c1ccc(OCC(O)CN2CCC(C)CC2)cc1 (stereo not given)	nt	0.0
Cc1nc(NCCNC(=O)c2ccco2)c2c(C)c(C)sc2n1	i	2.8
CCc1ccc(N2CC(C(=O)OCC(=O)NC3CCS(=O)(=O)C3)CC2=O)cc1 (stereo not given)	i	-0.8
CCOC(=O)c1cccc(NC(=O)CSc2nnc(C3CCCCC3)n2C)c1	i	1.2
O=C(c1ccc(Cl)c(F)c1F)N1CCCC1	i	2.1
CC(=O)c1cccc(NC(=O)c2nccnc2C(=O)O)c1	nt	-0.5
O=C(CCNS(=O)(=O)c1cccc2nsnc12)NCCC1=CCCCC1	nt	-0.5
COc1ccc(C2CC(c3ccc(F)cc3)Nc3nc(N)nn32)cc1 (stereo not given)	nt	4.5
CN(C(=O)COC(=O)C1CCN(S(=O)(=O)c2cccs2)CC1)C1CCS(=O)(=O)C1 (stereo not given)	i	-2.2
COC(=O)CN(c1ccc2c(c1)OCO2)S(C)(=O)=O	i	-1.0
COC(=O)c1ccc(-c2cc(C(=O)O)c3cc4c(cc3n2)OCCO4)cc1	nt	0.6
Cc1cc(NC(=O)c2cnn3cccnc23)no1	i	0.5
c1ccc(Cn2nnc3c(N4CCCCCC4)ncnc32)cc1	i	1.0
O=C(CC(Cc1ccccc1)C(=O)O)NCCc1ccc2c(c1)OCO2 (stereo not given)	i	0.0
CCC1C(=O)n2nc(-c3ccccc3)cc2N=C1C (stereo not given)	i	2.1
CCCCc1ccc(NC(=O)c2c(C)noc2C)cc1	i	0.7
O=C(NCC1CCCO1)C1CCCCN1S(=O)(=O)c1ccc(F)cc1 (stereo not given)	nt	5.3
O=C(Nc1nc(-c2nc3ccccc3s2)cs1)c1ccc(S(=O)(=O)N2CCOCC2)cc1	nt	0.8
Cc1ccc(-c2nnc(N(C)C(=O)c3ccccn3)s2)cn1	i	5.6
COc1ccc(-c2cc(CCCC(=O)NCCc3ccc(OC)cc3OC)no2)cc1	nt	-0.1
Cn1c(=O)oc2cc(S(=O)(=O)N3CCCc4ccccc43)ccc21	nt	0.6
C=C(C)Cn1c(CCCNC(=O)CCC)nc2ccccc21	nt	1.9
CC(C)CC(NC(=O)C1CCC(C)CC1)C(=O)N1CCN(c2ccccn2)CC1 (stereo not given)	nt	2.6
CCC(=O)N1CCCc2cc(S(=O)(=O)N3CCN(c4ccccc4F)CC3)ccc21	nt	2.6
C=CCOC(=O)c1[nH]c2c(c1C)C(=O)CC(c1ccco1)C2 (stereo not given)	nt	-0.4
COc1ccc(-c2oc3ncn(CCN4CCOCC4)c(=N)c3c2-c2ccc(OC)cc2)cc1	i	3.0
O=C(COc1ccccc1)Nc1ccccc1N1CCN(c2ccccc2)CC1	i	-0.9
Cc1cc(Cl)c(S(=O)(=O)Nc2ccc3c(c2)OCCO3)cc1OCC(N)=O	i	-1.4
Cc1nn(C)c(C)c1CN(C)C(=O)c1cc2nc(-c3ccco3)cc(C(F)(F)F)n2n1	i	-0.8
COc1ccc(-c2cc(N)n(S(=O)(=O)c3c(F)c(F)c(F)c(F)c3F)n2)cc1OC	nt	0.9
Cc1ccc(-c2noc(C3CCCN(C(=O)c4ccccc4)C3)n2)o1 (stereo not given)	i	2.1
CC1=C(C(=O)NC2CCCC(C)C2C)C2(CCCCC2)OC1=O (stereo not given)	i	-0.9
CCOC(=O)N1CCN(C(=O)c2nn(-c3cc(OC)cc(OC)c3)c(=O)c3ccccc23)CC1	nt	-1.1
Cc1cc(S(=O)(=O)N2CCN(Cc3ccc4c(c3)OCO4)CC2)cc(C)c1N1CCCC1=O	nt	0.4
COc1cccc(NC(=O)C2CCCN(S(=O)(=O)c3cccc4nsnc34)C2)c1 (stereo not given)	nt	0.9
CCOc1ccccc1NC(=O)CCN1CCN(S(=O)(=O)c2ccc(Br)cc2)CC1	i	1.7
Cn1c(Cn2c(=O)sc3ccccc32)nnc1SCC(N)=O	nt	-3.0
O=c1ccn(CCOc2ccc(Cl)cc2)c(=O)[nH]1	nt	-2.5
COc1ccccc1CNC(=O)c1oc2ccc(S(=O)(=O)N3CCCC3)cc2c1C	nt	1.7
Cc1ccccc1NC(=O)NCCCN1CCN(C2CCCCC2)CC1	i	-0.6
COC(=O)CNC(=O)c1c(C)cc(=O)oc1C	i	0.3
COc1ccccc1CNC(=O)C1CCC(CNc2c(N3CCOCC3)c(=O)c2=O)CC1 (stereo not given)	i	-0.5
COc1ccccc1Cc1nc(-c2ccc(Br)o2)no1	nt	-0.9
O=C1C2CCCN2C(c2cccs2)N1c1ccc(Cl)cc1 (stereo not given)	nt	4.6
COc1c(Cl)cc(Cl)cc1/C=N/n1cnnc1	nt	-2.2
CCOC(=O)c1ccc2[nH]c3c(c2c1)CCCCC3=O	i	2.2
CCOc1ccccc1NC(=O)Cn1nnc(C(=O)NCc2ccco2)c1N	nt	0.7
O=C(c1ccc(CS(=O)(=O)c2ccc(Br)cc2)o1)N1CCOCC1	nt	0.3
Cc1ccc(NC(=O)c2ocnc2C)cc1Cl	nt	0.7
O=C(NCCN1CCc2ccccc2C1)C1CCN(S(=O)(=O)N2CCC3(CC2)OCCO3)CC1	nt	-3.9
O=C(c1cc2ccccc2oc1=O)N1CCSC1c1ccco1 (stereo not given)	i	-0.2
CCN(CC)CCNC(=O)C1CCC(=O)N(c2ccc(OC)cc2)C1c1ccc(F)cc1 (stereo not given)	nt	0.9

More entries follow:
SMILES	VCAM-1 rise	Proteasome disasm
CCC(C)NC(=O)CN1C(=O)CC(C)(C)S(=O)(=O)c2ccccc21 (stereo not given)	nt	-6.3
CCOc1ccc(CCNC(=O)C2CCN(S(=O)(=O)N3CCOCC3)CC2)cc1OCC	nt	-1.7
Cc1cc(NC(=O)c2cnc3ccccn3c2=O)no1	nt	5.5
COc1ccc(-c2cc(C(=O)N3CC4(C)CC3CC(C)(C)C4)no2)cc1OC (stereo not given)	nt	0.8
COc1ccc(C(=O)N(CN2CCCC2=O)c2ccccc2OC)cc1OC	nt	-0.9
Cc1ccc(S(=O)(=O)NCc2cn3ccsc3n2)c(C)c1	nt	0.6
Cc1nc2ccccc2c2oc(C(=O)NCc3ccc4c(c3)OCO4)cc12	nt	0.2
O=C(NCc1ccccn1)C1CCN(S(=O)(=O)c2cccs2)CC1	nt	0.1
COc1ccccc1C(=O)n1nc(-c2ccc(Cl)cc2)nc1N	i	1.3
COCCNC(=O)c1cc2c(-c3ccccc3F)nn(C)c2s1	i	0.1
CC(=O)Nc1nonc1NC(=O)CSc1ncn[nH]1	nt	0.6
Cc1cc(NC(=O)C23CCC(C)(c4nc5cc(Cl)c(Cl)cc5nc42)C3(C)C)no1 (stereo not given)	i	-1.0
Cc1onc(-c2ccccc2Cl)c1C(=O)Nc1cccc(-c2cn3cccnc3n2)c1	i	2.8
CC1CCc2nn(CC(=O)NCc3ccco3)cc2C1 (stereo not given)	nt	-4.9
COc1ccccc1-n1c(SCC(=O)Nc2ccccc2F)nc2[nH]ncc2c1=O	nt	0.1
O=C(c1c[nH]c2ccc(S(=O)(=O)N3CCOCC3)cc2c1=O)N1CCN(c2ccccn2)CC1	nt	0.2
Cc1cccc(NC(=O)C(NS(=O)(=O)c2ccc3c(c2)CCC(=O)N3)c2ccccc2)n1 (stereo not given)	nt	-2.4
CCCC(C)c1nnc(NC(=O)C2CCCO2)s1 (stereo not given)	i	0.2
CS(=O)(=O)c1nc(-c2ccccc2)cc(C(F)(F)F)n1	nt	-1.7
COc1ccc(C2CC(=O)N3C(=C2C#N)SCC3(O)c2ccccc2)cc1 (stereo not given)	nt	0.8
Cc1cccc(N2CCN(C(=O)CCCn3c(=S)[nH]c4cc5c(cc4c3=O)OCO5)CC2)c1C	nt	2.0
CC(=O)c1ccc(OCC(O)CN2CCN(Cc3ccc4c(c3)OCO4)CC2)cc1 (stereo not given)	i	0.1
CN(Cc1ccccc1)Cc1c[nH]c2ccccc12	i	0.2
CCC(=O)N1c2ccccc2-c2nnc(SC)nc2OC1c1ccc(N(C)C)cc1 (stereo not given)	nt	0.5
CC1CCCN(C(=O)Cn2c(-c3nonc3N)nc3ccccc32)C1 (stereo not given)	nt	-3.2
Cc1nc2ccccc2c(=O)n1NC(=O)c1ccc(F)cc1Cl	i	0.1
COc1ccc(C2C(C(=O)Nc3ccc(F)cc3)=C(C)Nc3nc(CCCO)nn32)cc1 (stereo not given)	nt	-1.6
COC(=O)c1ccc(NC(=O)c2sc3nc(-c4ccccc4)cn3c2C)cc1	nt	0.6
Cc1nn(Cc2ccc(F)cc2)c(C)c1NC(=O)c1noc2c1CCCCC2	nt	-1.1
CC(=O)NC1=NC(=O)/C(=C/N2CCCCC2)S1	i	-2.8
Cn1cccc1Cc1nnc(SCC(=O)Nc2cccc(Cl)c2)n1-c1ccc(F)cc1	nt	1.2
Cc1ccc(S(=O)(=O)N2CCCC(C(=O)O)C2)s1 (stereo not given)	nt	-1.0
O=C(O)c1cc2c([nH]c1=O)CCCC2	i	-3.0
FC(F)(F)c1cc(-c2ccco2)nc(NCc2ccccc2)n1	nt	1.3
COc1ccc(NC(=O)N(C2CCCCC2)C2CCN(C(C)C)CC2)c(OC)c1	i	-0.8
O=c1cc(N2CCN(Cc3ccccc3)CC2)[nH]c(=O)n1-c1cccc(C(F)(F)F)c1	nt	0.4
COc1cc(C2CC(=O)NC(SCC(=O)Nc3ccccc3C)=C2C#N)ccc1O (stereo not given)	nt	0.4
O=C(CCCN1C(=O)c2ccccc2C1=O)NCc1cccnc1	i	-1.2
COc1ccc2c(c1)CCc1c(C(=O)NCc3cccnc3)noc1-2	i	-0.8
NC(=O)NC(=O)Nc1ccccc1Cl	nt	-1.4
CC1(C)CC(=O)C(C#N)=C(NCCCO)C1	i	-0.3
Nc1ccc(-n2ccnc2)cc1	nt	1.1
CN(C)c1ccc(C2C3=C(CCCC3=O)OC3=C2C(=O)CCC3)cc1	i	5.4
CCOC(=O)CCNC(=O)Nc1ccc2nc(C)n(Cc3ccccc3Cl)c(=O)c2c1	i	4.7
CC(=O)NCc1nc2ccccc2n1C(C)C	i	-0.1
O=C(O)C1C2C=CC(O2)C1C(=O)NCCCn1ccnc1 (stereo not given)	nt	0.6
O=C(Cn1cnc2c(nnn2Cc2ccccc2F)c1=O)NCc1ccco1	nt	2.4
CSc1nsc(SCC(=O)N2CCc3ccccc32)n1	i	0.2
Cc1noc(C)c1S(=O)(=O)Nc1ccc(C(=O)N2CCc3ccccc3C2)cc1	nt	0.9
CC1CCc2c(C(=O)NCCCN3CCOCC3)csc2C1 (stereo not given)	nt	-1.0
CCCCOn1c(C)c(C(=O)OCC)c2c3nonc3ccc21	i	-1.7
COc1nc(NCCc2ccc(OC)c(OC)c2)nc(NC(C)(C)CO)n1	i	-0.1
CC1CCN(Cc2ccc(-c3nn[nH]n3)cc2)CC1	i	1.2
Cc1oc(-c2ccc(Cl)cc2)nc1CN1CCCC(C(=O)NCc2cccnc2)C1 (stereo not given)	nt	2.9
CCn1c(SCC(=O)Nc2nccs2)nnc1-c1ccncc1	i	1.5
CC(=O)Nc1ccc(NC(=O)C(C)Oc2ccccc2F)cc1 (stereo not given)	i	-1.6
O=C(O)c1ccc2c(c1)NC(=O)C(N1CCCC1)S2 (stereo not given)	nt	-3.2

Part of the list above in order of length of the SMILES, low to high:
SMILES	VCAM-1 rise	Proteasome disasm
Nc1ccc(-n2ccnc2)cc1	nt	1.1
NC(=O)NC(=O)Nc1ccccc1Cl	nt	-1.4
CC(=O)NCc1nc2ccccc2n1C(C)C	i	-0.1
CC1(C)CC(=O)C(C#N)=C(NCCCO)C1	i	-0.3
CSc1nsc(SCC(=O)N2CCc3ccccc32)n1	i	0.2
CC1CCc2c(C(=O)NCCCN3CCOCC3)csc2C1 (stereo not given)	nt	-1.0
O=C(O)c1ccc2c(c1)NC(=O)C(N1CCCC1)S2 (stereo not given)	nt	-3.2
CCCCOn1c(C)c(C(=O)OCC)c2c3nonc3ccc21	i	-1.7
CC(=O)Nc1ccc(NC(=O)C(C)Oc2ccccc2F)cc1 (stereo not given)	i	-1.6
O=C(Cn1cnc2c(nnn2Cc2ccccc2F)c1=O)NCc1ccco1	nt	2.4
COc1nc(NCCc2ccc(OC)c(OC)c2)nc(NC(C)(C)CO)n1	i	-0.1
CN(C)c1ccc(C2C3=C(CCCC3=O)OC3=C2C(=O)CCC3)cc1	i	5.4
Cc1oc(-c2ccc(Cl)cc2)nc1CN1CCCC(C(=O)NCc2cccnc2)C1 (stereo not given)	nt	2.9
Cc1noc(C)c1S(=O)(=O)Nc1ccc(C(=O)N2CCc3ccccc3C2)cc1	nt	0.9
CCOC(=O)CCNC(=O)Nc1ccc2nc(C)n(Cc3ccccc3Cl)c(=O)c2c1	i	4.7
